HPGD block: HPGD (human) dehydrogenase inhibition; P15428; purified HPGD, NADH fluorescence kinetic, PGE2 substrate; Potency, µM, without a hit: at the highest dose activity change, negative = inhibition, most hits filed as inhibitors; 150,000 tested, 4.3% active; active = well fitted inhibition curve with a large enough effect (not every such curve was filed as active); inconclusive = small, poorly fitted or top-dose-only effect, or another doubt; inactive = no such curve, though single readings can be large or run the other way;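 further: top concentration of the series not given in the record; plate controls included wells without enzyme; inactives centre near -10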
Target sequence (P15428 whole entry, looked up): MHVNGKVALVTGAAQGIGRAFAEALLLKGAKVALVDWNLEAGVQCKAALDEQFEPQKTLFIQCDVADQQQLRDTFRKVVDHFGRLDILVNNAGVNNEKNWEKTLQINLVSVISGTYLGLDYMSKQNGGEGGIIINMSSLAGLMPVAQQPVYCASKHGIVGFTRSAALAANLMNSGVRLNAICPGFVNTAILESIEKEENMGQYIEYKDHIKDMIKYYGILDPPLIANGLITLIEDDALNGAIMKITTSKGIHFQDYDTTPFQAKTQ
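NADH formation kinetics: reaction with 30 uM PGE2 and 1 mM NAD+ (final), 20 nM enzyme, Tris-HCl pH 8 with Tween 20, after 15 min compound preincubation at room temperature. Fluorescence change, last versus first of five reads.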
The depositor's hits bear a star; ? = inconclusive. On the % scale 0 is the no-effect control and ±100 the full control effect; potency means the concentration at half of the fitted maximal effect.

Nc1ccc(S(=O)(=O)N2CCCc3ccccc32)cc1
  HPGD block: -12%
Fc1cccc(NC(=S)NCc2ccccn2)c1
  HPGD block: ?
COC(=O)C1=C(C)Nc2ncnn2C1c1ccc(OCc2ccccc2)cc1 (stereo not given)
  HPGD block: -26%
CC1CCC(C(C)C)C(OCC(O)CN2CCOCC2)C1 (stereo not given)
  HPGD block: -10%
COC(=O)C1=C(C)OC(N)=C(C#N)C1c1cc(OC)ccc1OC (stereo not given)
  HPGD block: -6%
O=C(COc1ccc2c(C(F)(F)F)cc(=O)oc2c1)NCc1cccs1
  HPGD block: ?
CCSc1nc(-c2ccccc2)c2cc(Cl)ccc2n1
  HPGD block: -28%
O=C(NN=C1C2CC3CC(C2)CC1C3)c1cccc(S(=O)(=O)N2CCOCC2)c1
  HPGD block: 0%
CCCc1cc(C(=O)NC2CCCC2)no1
  HPGD block: -22%
Cc1ccc(S(=O)(=O)n2nc(OC(=O)C3CCCCC3)cc2N)cc1
  HPGD block: -13%
O=C(OCn1nnc2ccccc2c1=O)c1cccnc1
  HPGD block: -10%
COC(=O)CNC(=O)COC(=O)c1ccc(OC)c([N+](=O)[O-])c1
  HPGD block: -4%
Cc1ccc2nc(NC(=O)C(NS(=O)(=O)c3cccc4nsnc34)C(C)C)sc2c1 (stereo not given)
  HPGD block: 0%
CCOC(=O)CCc1c(C)nc2c(c(C)nn2C(C)(C)C)c1C
  HPGD block: -17%
CC(C)CN(CC(C)C)CC(O)COc1ccc([N+](=O)[O-])cc1 (stereo not given)
  HPGD block: -16%

CCCc1[nH]nc2c1C(c1ccoc1)C(C#N)=C(N)O2 (stereo not given)
  HPGD block: -2%
Cc1ccc(N/C=C/C(=O)c2ccccc2)cc1C
  HPGD block: -11%
O=C(NCc1ccco1)C(=O)NCc1ccccc1Cl
  HPGD block: -16%
COc1ccc(NS(=O)(=O)c2ccc(O)c(C(=O)OCC(=O)N3CC(C)OC(C)C3)c2)cc1 (stereo not given)
  HPGD block: -6%
Nc1cccc(C(=O)Nc2ccco2)c1
  HPGD block: -12%
N#Cc1nc(-c2ccccc2)oc1NCCN1CCCCC1
  HPGD block: ?
COc1cccc2c(C)c(C(=O)O)[nH]c12
  HPGD block: ?
O=C(O)CCCC(=O)N1N=C(c2c(-c3ccccc3)c3cc(Cl)ccc3[nH]c2=O)CC1c1cccs1 (stereo not given)
  HPGD block: -17%
CN(C(=O)c1ccccn1)C1(C(=O)NC2CCCCC2)CCCCC1
  HPGD block: 6%
O=S(=O)(c1ccccc1Cl)N1CCCC1c1nc(-c2cccc(Cl)c2)no1 (stereo not given)
  HPGD block: -13%
Cc1nc(SCC(C)C)[nH]c(=O)c1Cc1ccccc1
  HPGD block: -8%
COc1ccc(CC(=O)Nc2ccc(-c3cn4ccccc4n3)cc2)cc1
  HPGD block: ?
O=C(Cc1cn2ccsc2n1)OCc1ccccc1
  HPGD block: -28%
COC(=O)COc1ccc(S(=O)(=O)N2CCOCC2)cc1
  HPGD block: -14%
CCC1S/C(=N/N=C/c2cccs2)NC1=O (stereo not given)
  HPGD block: -9%

CC(C)c1nc(SCc2ccccn2)c2c(=O)n(C)c(=O)n(C)c2n1
  HPGD block: -15%
CC(=O)Nc1ccc(Cl)cc1C1COC(=O)C1=N (stereo not given)
  HPGD block: -3%
C=C[C@@]1(C)CC(=O)[C@@]2(O)[C@@]3(C)[C@@H](O)CCC(C)(C)[C@@H]3[C@H](O)[C@H](OC(C)=O)[C@@]2(C)O1
  HPGD block: -8%
CCC(C)[C@H](NC(=O)NCc1cccc(OC)c1)C(=O)O (stereo not given in full)
  HPGD block: -3%
O=C(CN1C(=O)CSc2ccc(S(=O)(=O)N3CCCCC3)cc21)NCc1cccnc1
  HPGD block: 6%
C=C(C)COc1ccc(-c2n[nH]c(C)c2-c2ccccc2)c(O)c1
  HPGD block: -10%
Cc1ccc(S(=O)(=O)NC2=NCN(CCOC(=O)c3ccc([N+](=O)[O-])cc3)CN2)cc1
  HPGD block: -11%
O=C(Cc1cc(=O)[nH][nH]1)N/N=C/c1c(Cl)cccc1Cl
  HPGD block: 14µM*
Cc1ccccc1CSc1nnc(-c2ccccn2)n1N
  HPGD block: -13%
CC(=O)c1c(C)[nH]c(C(=O)OCC(=O)N(C)C)c1C
  HPGD block: -16%
Cc1ccc2c(c1)C(=O)c1ccccc1CS2=O (stereo not given)
  HPGD block: -23%
Cc1cc(C)cc(NC(=O)CSc2nnc(-c3ccccc3Br)o2)c1
  HPGD block: -19%
C=CCNC(=O)/C(=C\c1cccc([N+](=O)[O-])c1)NC(=O)c1ccccc1
  HPGD block: -15%
COc1cccc(C(=O)NC2CCN(CC(=O)NCc3ccccc3OC)CC2)c1
  HPGD block: -4%
CCN1CCN(CCC(=O)Nc2cccc(OC)c2)CC1
  HPGD block: -12%

Cc1noc(C)c1C(=O)NC(C)c1ccc2c(c1)OCO2 (stereo not given)
  HPGD block: -5%
CSc1cccc(NC(=O)CSc2ccccc2)c1
  HPGD block: -12%
O=C(C[n+]1ccc(-c2nnc3n2CCC3)cc1)c1ccc(Cl)c(Cl)c1
  HPGD block: ?
COc1cc(C=O)ccc1OCc1c(C)noc1C
  HPGD block: -16%
CCOC(=O)c1cnc2ccc(C(=O)OC)cc2c1NCc1ccco1
  HPGD block: -17%
COc1cc(/C=N/NC(=O)c2ccc(-c3ccccc3)cc2)cc(OC)c1OC
  HPGD block: ?
ClC(Cl)Cl
  HPGD block: -5%
COc1ccc(/C=N/NC(=O)CCc2n[nH]c(=O)[nH]c2=O)cc1OC
  HPGD block: -26%
COc1cc(OC)c(C(=O)Oc2ccc3c(c2)OCO3)cc1OC
  HPGD block: -12%
O=C(CCCNC(=O)/C(=C/c1ccccc1F)NC(=O)c1ccccc1)OCc1ccccc1
  HPGD block: -18%
CCOC(=O)C(Oc1ccc2c(-c3ccccc3)cc(=O)oc2c1)c1ccccc1 (stereo not given)
  HPGD block: -19%
COc1ccc(CCn2c(=S)[nH]c3cc(C(=O)NCc4ccco4)ccc3c2=O)cc1OC
  HPGD block: ?
CN1CCN(c2ccccc2NC(=O)c2cc3ccccc3o2)CC1
  HPGD block: -9%
O=C(Nc1cccnc1)C1CCCN1S(=O)(=O)c1ccc(Cl)c(Cl)c1 (stereo not given)
  HPGD block: 3%
CCc1nnc(NC(=O)CSc2ncc(-c3ccccc3)[nH]2)s1
  HPGD block: -19%

O=C(c1ccncc1)N1CCC[C@@]2(CCN(Cc3ccccc3)C2)C1
  HPGD block: -4%
O=C(COC(=O)c1cnccn1)Nc1ccc2c(c1)OCO2
  HPGD block: -3%
COc1ccc(NC(=O)CSc2ncnc3c2cnn3Cc2ccccc2)cc1OC
  HPGD block: 4%
CCCCn1nc2cc(C(=O)NCCc3ccc(C)cc3)ccc2c1OCC
  HPGD block: -28%
CC[C@H](C)[C@@H](NC(=O)O[C@@H]1Cc2cc(OC)ccc2O[C@H]1c1cccc(OC)c1)C(=O)OC
  HPGD block: -2%
CCC1(C)OC(=O)N(CCCn2ccnc2C)C1(C)O (stereo not given)
  HPGD block: -14%
C[N+](C)(C)CCOC(=O)C1(c2ccccc2)CCCC1
  HPGD block: -4%
CCOC(=O)CCC(NC(=O)c1ccc(NCN2C(=O)CCC2=O)cc1)C(=O)OCC (stereo not given)
  HPGD block: -14%
Cc1ccccc1OCC(=O)NCCC(=O)O
  HPGD block: 4%
Brc1ccc(-n2c(SCc3nc4ccccc4[nH]3)nnc2-c2ccncc2)cc1
  HPGD block: -10%
O=C(c1cn(-c2ccccc2)nc1-c1ccc(Br)cc1)N1CCOCC1
  HPGD block: -6%
Cc1ccc(C2NNC(=O)C2NC(=O)c2ccccc2)cc1 (stereo not given)
  HPGD block: -3%
O=C(O)CSc1nc(-c2ccccc2)nc2c1oc1ccccc12
  HPGD block: ?
Cc1ccc2cc(C(c3nnnn3C3CCCC3)N(Cc3ccccc3)Cc3ccco3)c(=O)[nH]c2c1 (stereo not given)
  HPGD block: ?
Cc1nnc(C)n1/N=C/c1ccc(-c2ccccc2)cc1
  HPGD block: -15%

Reformatted as tab-separated lines: part of the list above.
molecule	HPGD block
O=C(COC(=O)c1cnccn1)Nc1ccc2c(c1)OCO2	-3%
COc1ccc(NC(=O)CSc2ncnc3c2cnn3Cc2ccccc2)cc1OC	4%

(list continues)
CN1CCCC1CCO[C@@](C)(c1ccccc1)c1ccc(Cl)cc1 (stereo not given in full)
  HPGD block: -7%
COc1ccc(NC(=S)N2CCN(C/C=C/c3ccccc3)CC2)cc1OC
  HPGD block: 5%
CC(C#N)Sc1ncnc2sc3c(c12)CCC3 (stereo not given)
  HPGD block: -28%
COc1ccc(CCNc2nc(N3CCCCC3)nc(N3CCCCC3)n2)cc1OC
  HPGD block: -7%
COc1cc(OC)cc(OCC(O)Cn2cnc(-c3ccccc3)c2)c1 (stereo not given)
  HPGD block: -14%
C/C(=N\NC(=O)c1ccoc1C)c1cccnc1
  HPGD block: -7%
CCCc1nnc2n1N=C(c1ccc(OC)c(OC)c1)CS2
  HPGD block: -1%
COc1ccc(C(=O)/C=C/C(=O)N(Cc2ccccc2)C(C(=O)NC2CCCCC2)c2ccncc2)c(O)c1 (stereo not given)
  HPGD block: -2%
CC(=O)N1SC(N)=NC1c1ccccc1 (stereo not given)
  HPGD block: -6%
O=C(CSc1nnc(-c2ccccn2)n1Cc1ccco1)c1ccccc1
  HPGD block: -29%
COc1ccc(-c2coc3c(OC)c(OC)cc(OC)c3c2=O)cc1
  HPGD block: 0%
O=C(O)c1ccc(COc2ccccc2[N+](=O)[O-])o1
  HPGD block: -12%
CC(C)OP(=O)(OC(C)C)C(Nc1ccccn1)c1ccc(F)cc1 (stereo not given)
  HPGD block: 4%
Cc1cc(C)n(CC(O)CN2C(=O)NC(C)(C)C2=O)n1 (stereo not given)
  HPGD block: -15%
Cc1ccc(NC(=O)c2cc(-c3ccc(C)o3)nc3ccccc23)nc1
  HPGD block: ?

CC(C)=CCC[C@](C)(O)C1CC=C(C)CC1 (stereo not given in full)
  HPGD block: -8%
O=C(CCCc1nc(-c2ccccc2)no1)NCc1cccnc1
  HPGD block: -14%
O=[N+]([O-])c1ccc(NNC(=S)Nc2ccccc2)cc1
  HPGD block: -27%
Cc1cc(Cl)cc(C)c1OCC(=O)O
  HPGD block: -7%
O=C(O)CCc1ccc(-c2ccc(Cl)cc2)n1CCC(=O)O
  HPGD block: ?
COc1ccc(C(CC(=O)NCCN2CCOCC2)NS(=O)(=O)c2ccc(C)cc2)cc1 (stereo not given)
  HPGD block: 4%
O=C(c1cccs1)N1CCC(c2nc3ccccc3s2)CC1
  HPGD block: -8%
CCn1c(=O)cc(SCC(=O)NCC2CCCO2)c2ccccc21 (stereo not given)
  HPGD block: ?
CCOC(=O)c1nnn(-c2nonc2-n2cccc2)c1CN1CCCCC1
  HPGD block: -23%
CC1(C)CC(=O)C(=CN2CCN(C(=O)c3ccco3)CC2)C(=O)C1
  HPGD block: -9%
O=C(O)CCC(=O)N1CCOc2ccc(Cl)cc21
  HPGD block: -3%
CCCn1c(C)nc2c(NCCN(C)C)nc(C)nc21
  HPGD block: -19%
Cn1c(=O)c2cc(S(=O)(=O)NCCC(=O)N3CC=C(c4ccccc4)CC3)ccc2n(C)c1=O
  HPGD block: -18%
CCCCCn1c(N2CCN(Cc3ccccc3)CC2)nc2c1c(=O)[nH]c(=O)n2C
  HPGD block: -3%
CC1=C(C(=O)OC(C)C)C(c2ccco2)NC(=O)N1 (stereo not given)
  HPGD block: -10%

Looked up above.
Value of Cc1ccc(C2NNC(=O)C2NC(=O)c2ccccc2)cc1 (stereo not given) in HPGD block: -3%
Value of O=C(c1cccs1)N1CCC(c2nc3ccccc3s2)CC1 in HPGD block: -8%
Value of CC(C#N)Sc1ncnc2sc3c(c12)CCC3 (stereo not given) in HPGD block: -28%

Later entries:
COC(=O)Cc1c(O)ccn(Cc2ccccc2OC)c1=O
  HPGD block: 2%
Cc1ccc(CNC(=O)/C=C/c2ccc(S(=O)(=O)NCc3ccco3)cc2)cc1
  HPGD block: -6%
OC(CN=c1sc2ccccc2n1CC(O)COc1ccccc1)COc1ccccc1 (stereo not given)
  HPGD block: -15%
Cc1ccc2c(C)c(C(=O)Nc3cccnc3)oc2c1
  HPGD block: -15%
COc1ccc(C(=O)NCC(=O)NCC2COc3ccccc3O2)cc1 (stereo not given)
  HPGD block: -7%
COC(=O)CC[C@@H](C)[C@H]1CC[C@H]2[C@@H]3CC[C@@H]4C[C@H](O)CC[C@]4(C)[C@H]3C[C@H](O)[C@]12C
  HPGD block: -1%
CCCCSc1nc2c(c(=O)[nH]c(=O)n2C)n1CCc1ccccc1
  HPGD block: -21%
O=C(c1ccccc1Nc1ccc(SC(F)F)cc1)N1CCCCC1
  HPGD block: -9%
O=C(CSc1nnc(COc2ccc(Cl)cc2)n1Cc1ccco1)c1ccccc1F
  HPGD block: -2%
COc1cccc(-n2nnc3c(=O)n(C/C=C/c4ccccc4)cnc32)c1
  HPGD block: 10µM*
O=Cc1cccc(Br)c1
  HPGD block: -8%
Cc1ccccc1N1CC(O)(c2ccccc2)[N+]2=C1SCC2 (stereo not given)
  HPGD block: -3%
CN(c1ccccc1)S(=O)(=O)c1cccc(NC(=O)Cn2cnc3ccccc3c2=O)c1
  HPGD block: -10%
CCc1[nH]nc2c1C(c1ccsc1)C(C#N)=C(N)O2 (stereo not given)
  HPGD block: 0%
O=C(COC(=O)c1ccccn1)NC1CCCCC1
  HPGD block: -3%
COc1cccc(NC(=O)CSc2nnc(COc3ccc4c(c3)CCCC4)o2)c1
  HPGD block: -11%
CC(C)c1ccc(C(=O)N2CCCN(C(=O)c3ccc(C(C)C)cc3)CC2)cc1
  HPGD block: -5%

Random excerpt: two entries already listed.
CCSc1nc(-c2ccccc2)c2cc(Cl)ccc2n1
  HPGD block: -28%
CCn1c(=O)cc(SCC(=O)NCC2CCCO2)c2ccccc21 (stereo not given)
  HPGD block: ?

High-throughput results: PubChem, National Center for Advancing Translational Sciences (NCATS)

Only part of the results is shown; count on the stated rates, not on these rows.
